Screens: PubChem, National Center for Advancing Translational Sciences (NCATS)
Cruzain inh noDet: qHTS Assay for Promiscuous and Specific Inhibitors of Cruzain (without detergent); Cruzipain (Trypanosoma cruzi), P25779; purified cruzain, Z-FR-AMC fluorescence, no detergent; Potency, µM, for inactives: max response, negative = inhibition, most hits filed as inhibitors; hit rate 2.3% among 200,000; AID 1476, 2009;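 further: plate controls were enzyme without inhibitor for no effect and buffer without enzyme for full effect; nearly all actives have a fitted effect of over 40% in size; top concentration of the series not given in the record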
Target sequence (P25779 123-467 limits assumed): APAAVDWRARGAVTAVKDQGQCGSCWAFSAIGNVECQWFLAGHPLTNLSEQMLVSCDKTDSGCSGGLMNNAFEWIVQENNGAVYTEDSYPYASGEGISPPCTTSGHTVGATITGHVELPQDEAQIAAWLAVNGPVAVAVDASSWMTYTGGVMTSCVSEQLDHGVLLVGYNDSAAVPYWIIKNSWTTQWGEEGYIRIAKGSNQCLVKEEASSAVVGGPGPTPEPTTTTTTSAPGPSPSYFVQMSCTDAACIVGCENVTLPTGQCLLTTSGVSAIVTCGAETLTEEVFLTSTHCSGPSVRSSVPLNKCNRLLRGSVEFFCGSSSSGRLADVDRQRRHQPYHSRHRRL
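Detergent-free condition (0.00005% Triton X-100) in acetate buffer pH 5.5 with DTT. 1.5 nM enzyme and compound were pre-mixed 15 min, then 2 uM Z-FR-AMC substrate added; reaction progress from fluorescence change between first and third reads (60 s).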
NS1 inh: qHTS Assay for Inhibitors of Influenza NS1 Protein Function; Potency, µM (series often up to 46.1 µM), for inactives: top-dose activity, positive = more growth; S. cerevisiae slowed by influenza A NS1, growth recovery by OD600; hit rate 0.4% among 270,000; active means well fitted rising curve with a large enough effect; inconclusive means small, poorly fitted or top-dose-only effect; inactive means no such curve, though single readings can be large or run the other way; further: nearly all actives have a fitted effect of over 50% in size
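Recovery from NS1-induced slow growth read by OD600 in budding yeast switched to galactose assay medium (pH 6.0, -URA) at 1:100 dilution. Compound 23 nl per well; the matching strain lacking NS1 serves as control.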
Cruzain Triton: qHTS Assay for Promiscuous and Specific Inhibitors of Cruzain (with detergent); Potency, µM, without a hit: max response, negative = inhibition, most hits filed as inhibitors; AID 1478, 2009; purified cruzain, Z-FR-AMC fluorescence, 0.01% Triton; hit rate 0.43% among 200,000;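 further: plate controls were neutral wells for no effect and buffer without enzyme for full effect; nearly all actives have a fitted effect of over 40% in size; top concentration of the series not given in the record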
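15 min RT preincubation of 1.5 nM cruzain with compound, then 2 uM Z-FR-AMC added; kinetic AMC fluorescence, 60 s delta. Triton X-100 0.01%, pH 5.5.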
* marks the source's active call; other numbers are inactive results; ? = inconclusive; · = no result given. Unless noted, the call rests on the fitted dose curve; in most records, active means well fitted curve in the direction sought with a large enough effect; inconclusive means small, poorly fitted or top-dose-only effect, or another doubt; inactive means no such curve, though single readings can be large; an effect the other way counts as inactive or inconclusive. Potency means the concentration at half of the fitted maximal effect. Some of the compounds tested. The share of hits here may be higher or lower than overall.

SMILES	Cruzain inh noDet	NS1 inh	Cruzain Triton
COc1ccc2c(c1)C(=O)[C@@H](OC(=O)N[C@H]1CCCc3ccccc31)[C@H](c1ccc(OC)c(Br)c1)O2	-4%	·	-1.0%
Cc1ccc2c(c1[N+](=O)[O-])C(=O)c1ccccc1C2=O	2%	·	5.6%
COC(=O)[C@@H]1C[C@H]2CC[C@H](O)C[C@H]2N1CC1CC1	-1%	·	-3.0%
CCC(C)C(=O)O[C@H]1C[C@@H](C)C=C2C=C[C@H](C)[C@H](CC[C@@H]3C[C@@H](O)CC(=O)O3)C21 (stereo partly drawn)	?	·	-3.7%
O=[N+]([O-])c1ccc(Cl)c(Cl)c1	-9%	·	4.3%
CCCN1[C@H](C(=O)OC)C[C@@H]2CC[C@@H](O)C[C@@H]21	-4%	·	-1.4%
C=C1CC/C=C(\C)CC[C@@H]2[C@@H]1CC2(C)C	2%	·	4.7%
COCCN(CCOC)c1nc(C)nc2c1nc(-c1ccccc1)n2CCCN1CCCCC1C (stereo not drawn)	-2%	·	-1.9%
Cc1cc(C)cc(O)c1	0%	·	-2.7%
CC(=O)OCC(=O)[C@@]1(O)CC[C@@H]2[C@H]3CCC4=CC(=O)CC[C@]4(C)[C@]3(F)[C@@H](O)C[C@@]21C	-5%	·	-2.6%
O=C1C=CC(=O)c2c1ccc1c2ccc2ccccc21	-14%	·	-11%
FC(F)(F)C(Cl)Br (stereo not drawn)	?	·	3.6%
COCC(=O)Nc1c(I)c(C(=O)NC[C@@H](O)CO)c(I)c(C(=O)N(C)C[C@@H](O)CO)c1I	-3%	·	3.8%
CC(Cl)CCl (stereo not drawn)	-7%	·	-2.0%
Cc1ccc(C2CC(=O)Oc3cc(C)c(Cl)c(C)c32)cc1 (stereo not drawn)	5%	·	-0.9%
O=C(Oc1cccc2cccnc12)c1ccccc1	2%	·	-0.7%
CC1(C)[C@@H](OC(=O)CCC(=O)O)CC[C@@]2(C)[C@H]1CC[C@@]1(C)[C@H]2C(=O)C=C2[C@H]3C[C@](C)(C(=O)O)CC[C@]3(C)CC[C@@]21C	?	·	-7.8%
COc1ccc2c(c1)C(=O)[C@@H](OC(=O)NCCOc1ccccc1)[C@H](c1ccc(OC)c(Br)c1)O2	-5%	·	0.6%
ClC1=C(Cl)C2(Cl)C3C(Cl)C(Cl)CC3C1(Cl)C2(Cl)Cl (stereo not drawn)	-8%	·	6.6%
CC(C)(C)OC(=O)NCCCCC1=CC2=CC(=O)C(C)(OC(=O)CCc3ccccc3)C(=O)C2=CO1 (stereo not drawn)	2%	·	0.6%
C[N+](C)(C)c1cc2c(nn1)Nc1ccccc1S2	14%	-6%	-1.0%
O=C(O)CC[C@@H](C(=O)O)N1C(=O)[C@@H]2[C@@H]3CC[C@H](C3)[C@@H]2C1=O	10%	-1%	4.8%
CN(C)c1ccc2nc3c(C(=O)O)cc(=O)c(O)c-3oc2c1	10%	-10%	-2.5%
CCOC(=O)[C@@H](O)Cc1cnc2ccccc2n1	-1%	0%	3.3%
O=c1[nH]cnc2[nH]cc(CN3CCCCC3)c12	5%	0%	-9.5%
c1ccc(C2=NN[C@@H]3c4ccccc4-c4ccccc4N3C2)cc1	-12%	-3%	-2.2%
Cc1cc(=Nc2ccc3c(c2)c(N)cc(C)[n+]3C)nc(N)n1C	-2%	-49%	1.1%
Cn1cnc([N+](=O)[O-])c1[Se]c1nc(N)nc2c1ncn2[C@@H]1O[C@@H](CO)[C@H](O)[C@@H]1O	3%	-3%	-1.7%
Cc1ccc(NC(=O)c2ccccc2C(=O)O)cc1C	5%	-5%	1.4%
Cc1ccc(NC(=[OH+])c2cc3ccccc3cc2O)c(C)c1.Cc1ccc(NC(=[OH+])c2cc3ccccc3cc2O)c(C)c1.[Ni]	30%	0%	4.7%

Already shown: entries from further up.
SMILES	Cruzain inh noDet	NS1 inh	Cruzain Triton
Cc1cc(C)cc(O)c1	0%	·	-2.7%
CC(=O)OCC(=O)[C@@]1(O)CC[C@@H]2[C@H]3CCC4=CC(=O)CC[C@]4(C)[C@]3(F)[C@@H](O)C[C@@]21C	-5%	·	-2.6%
O=C1C=CC(=O)c2c1ccc1c2ccc2ccccc21	-14%	·	-11%
FC(F)(F)C(Cl)Br (stereo not drawn)	?	·	3.6%
COCC(=O)Nc1c(I)c(C(=O)NC[C@@H](O)CO)c(I)c(C(=O)N(C)C[C@@H](O)CO)c1I	-3%	·	3.8%
CC(Cl)CCl (stereo not drawn)	-7%	·	-2.0%
Cc1ccc(C2CC(=O)Oc3cc(C)c(Cl)c(C)c32)cc1 (stereo not drawn)	5%	·	-0.9%
O=C(Oc1cccc2cccnc12)c1ccccc1	2%	·	-0.7%
CC1(C)[C@@H](OC(=O)CCC(=O)O)CC[C@@]2(C)[C@H]1CC[C@@]1(C)[C@H]2C(=O)C=C2[C@H]3C[C@](C)(C(=O)O)CC[C@]3(C)CC[C@@]21C	?	·	-7.8%
COc1ccc2c(c1)C(=O)[C@@H](OC(=O)NCCOc1ccccc1)[C@H](c1ccc(OC)c(Br)c1)O2	-5%	·	0.6%
ClC1=C(Cl)C2(Cl)C3C(Cl)C(Cl)CC3C1(Cl)C2(Cl)Cl (stereo not drawn)	-8%	·	6.6%
CC(C)(C)OC(=O)NCCCCC1=CC2=CC(=O)C(C)(OC(=O)CCc3ccccc3)C(=O)C2=CO1 (stereo not drawn)	2%	·	0.6%
C[N+](C)(C)c1cc2c(nn1)Nc1ccccc1S2	14%	-6%	-1.0%
O=C(O)CC[C@@H](C(=O)O)N1C(=O)[C@@H]2[C@@H]3CC[C@H](C3)[C@@H]2C1=O	10%	-1%	4.8%
CN(C)c1ccc2nc3c(C(=O)O)cc(=O)c(O)c-3oc2c1	10%	-10%	-2.5%
CCOC(=O)[C@@H](O)Cc1cnc2ccccc2n1	-1%	0%	3.3%
O=c1[nH]cnc2[nH]cc(CN3CCCCC3)c12	5%	0%	-9.5%
c1ccc(C2=NN[C@@H]3c4ccccc4-c4ccccc4N3C2)cc1	-12%	-3%	-2.2%
Cc1cc(=Nc2ccc3c(c2)c(N)cc(C)[n+]3C)nc(N)n1C	-2%	-49%	1.1%

Further entries follow.
SMILES	Cruzain inh noDet	NS1 inh	Cruzain Triton
CNC/C(Cl)=N/S(=O)(=O)c1ccc(C)cc1	-2%	1%	6.0%
Clc1ccc2c(N3CCC(CCC4CCN(c5ncnc6cc(Cl)ccc56)CC4)CC3)ncnc2c1	-1%	0%	-3.1%
O=C(O)c1cc(N=Nc2ccc([As](=O)(O)O)cc2)ccc1O	5%	-3%	-1.8%
CC(=O)O[C@]1(C)N=NC2(CCCCC2)O1	-6%	-2%	6.0%
COc1nc(Cl)nc(Cl)c1Cl (tested in a mixture with another compound)	-2%	5%	-4.5%
O=C1CC[C@H](NC(=O)c2ccccc2)C(=O)N1	18%	6%	4.8%
OCCN[C@@H]1c2cc(Cl)ccc2-c2c(Cl)cc(Cl)cc21	-2%	-8%	3.2%
Clc1ccc(CN2CCCN(Cc3ccc(Cl)cc3)C2c2cc3ccccc3c3ccccc23)cc1	0%	-14%	5.2%
O=C(N1CCOCC1)C1(c2ccccc2)CCNCC1	-2%	-3%	6.9%
NCCc1nc(-c2nc(C(=O)O)cs2)cs1	3%	0%	0.4%
CN(C)C[C@@H](O)c1ccc(Cl)c2ccccc12	3%	-10%	0.8%
CC(=O)O[C@H]1CC[C@@]2(C)C(=CC[C@@H]3[C@@H]4CC[C@H](c5cc(C(F)(F)F)n(C(C)=O)n5)[C@]4(C)CC[C@@H]32)C1	-8%	-5%	-11%
O=C(O)[C@H](C1NCCS1)N1Cc2ccccc2C1 (stereo partly drawn)	1%	1%	10%
N/C(CC/C(N)=N/O)=N\O	0%	2%	-0.1%
CC(C)c1ccc(/C(C(=O)O)=C(\O)C(=O)O)cc1	-12%	-2%	-1.3%
O=C(O)c1ccncc1.O=C(O)c1ccncc1.[NH2-].[NH2-].[Pt]	4%	3%	3.8%
Cc1c(Cl)cccc1NC(=O)C[C@H]1Sc2ccccc2NC1=O	2%	0%	-1.4%
CC1=NN(C(=O)c2ccncc2)C(=O)[C@@H]1N=Nc1ccc2ccccc2c1	-5%	-33%	-2.8%
COC(=O)[C@@H]1c2cc3c(c(O)c2[C@@H](O)C[C@]1(C)O)C(=O)c1c(O)cc2c(c1C3=O)O[C@H]1O[C@@]2(C)[C@@H](O)[C@H](N(C)C)[C@H]1O	-5%	-6%	3.3%
Cc1cc(N2CCCCC2)nc2ccc(Cc3ccc4nc(N5CCCCC5)cc(C)c4c3)cc12	-1%	-18%	2.0%
CN1CCN(c2nc3c(c(=O)n(C)c(=O)n3C)n2C)CC1	-4%	0%	0.5%
O=C(O)c1nc(-c2ccccc2)[nH]c1C(=O)O	-6%	-12%	3.7%
OCCCNCc1ccncc1	4%	-6%	-1.3%
C[C@H](CN(C)C)C(C#N)(c1ccccc1)c1ccccc1	2%	-5%	5.4%
O=C1OC(c2ccc(O)c(-c3ccccc3)c2)(c2ccc(O)c(-c3ccccc3)c2)c2c(Cl)c(Cl)c(Cl)c(Cl)c21	-1%	0%	1.4%
C[C@H](C(=O)c1ccncc1)c1ccccn1	?	3%	4.5%
CN(C)CCCc1c[nH]c2ccccc12	-4%	2%	5.8%
Cc1ccc(S(=O)(=O)Nc2ccccc2C(=O)c2ccc(C)c(C)c2)cc1	-3%	-5%	3.2%
Cc1ccc(N(Cc2ccccc2)Cc2ccccc2)cc1	-9%	-14%	-3.7%
O=C(O)CC[C@]1(C(=O)O)CCC(=O)c2ccccc21	-1%	0%	1.2%
CN1CCCN(C)C1c1cc([N+](=O)[O-])ccc1O	-2%	-48%	1.4%
O=C(O)CCCc1ccc2ccccc2c1	5%	-13%	-2.0%
O=C(O)C[SH+]CC(=O)O.O=C(O)C[SH+]CC(=O)O.[Cu]	5%	-3%	3.8%
CC1=N[C@@](C)(COC(=O)[C@]2(C)N[C@](C)(CO)CO2)COC1=O	7%	0%	3.1%
O=C1O[C@@H]([C@H](O)[C@H](O)[C@H](O)CO)[C@@H](O)[C@@H]1O	1%	6%	2.6%
Cc1ccc2nc(-c3ccc(NC(=O)c4ccc(N)cc4)c(S(=O)(=O)O)c3)sc2c1	?	-5%	-24%
C[C@]12CC[C@H]3c4ccc(O)cc4CC[C@@H]3[C@H]1CC[C@@H]2OC(=O)CCc1ccccc1	-13%	-17%	-6.0%
CC(C)(C)NCC[C@@H](O)c1cc(C(F)(F)F)nc2c(C(F)(F)F)cccc12	0%	-6%	-2.1%
Cc1c2cnccc2c(C)c2c1c1ccccc1n2CCOC(=O)c1ccccc1	-3%	-57%	-14%
N[C@@H](CNO)C(=O)O	-7%	-3%	1.4%
O=C(O)[C@H](Cc1cc(I)c(O)c(I)c1)C1CCCCC1	-7%	-31%	-5.0%
COc1ccc(Br)c2c1C[C@H](C(=O)O)CC2	-7%	-40%	14%
c1ccc(SC(Sc2ccccc2)c2ccc3c(c2)OCO3)cc1	-3%	-13%	0.9%
O=C(O)CC12C[C@H]3C[C@@H](CC(O)(C3)C1)C2	2%	-1%	5.3%
C[C@@]12C[C@H](O)C3[C@H](CCC4=CC(=O)CC[C@]43C)[C@H]1CC[C@@H]2c1csc(N)n1 (stereo partly drawn)	-3%	-11%	-1.3%
N=C(N)n1cc(/C=N\N=C(N)N)cn1	-6%	3%	10%
CC(=O)/C(=N\N=C(N)N)c1ccccc1	4%	-1%	2.0%
N=C(N)S[C@H]1c2ccccc2-c2cc([N+](=O)[O-])ccc21	-18%	18%	1.6%
O=C(O)c1cc(-c2ccc(-c3ccc(-c4cc(C(=O)O)c5cc(Cl)ccc5n4)cc3)cc2)nc2ccc(Cl)cc12	?	8%	-8.7%
NC(N)=Nc1ccc(-c2ccc(N=C(N)N)cc2)cc1	-2%	-1%	3.3%
c1ccc(C[C@@H](Nc2cccnc2)c2ccccc2)cc1	1%	-10%	6.3%

2 records picked at random from those above, as already listed:
SMILES	Cruzain inh noDet	NS1 inh	Cruzain Triton
c1ccc(C[C@@H](Nc2cccnc2)c2ccccc2)cc1	1%	-10%	6.3%
O=C(O)c1cc(-c2ccc(-c3ccc(-c4cc(C(=O)O)c5cc(Cl)ccc5n4)cc3)cc2)nc2ccc(Cl)cc12	?	8%	-8.7%
